Compound activity: PubChem BioAssay, PCMD
Calb biofilm kill – mixture kills Candida albicans biofilm cells; AID 1242; hit rate 0.02% among 120,000; inhibition, % at 7.6 µM; C. albicans biofilm persisters + clotrimazole, fluorescence viability; primary screen in compound mixtures of four per well;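 active = inhibition above 30.3% in the primary screen of four-compound pools, then above 30% when the compound was retested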;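 also: compounds exposed to preformed 24 h biofilms for 48 h; the number belongs to the whole pool; some results filed as inactive read as strong as hits; inactives centre near 12; 0% = biofilm with clotrimazole alone and 100% = kill control; retested singly at about 60 µM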
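Probe or stimulus – Clotrimazole 50 µg/mL co-treatment · System – C. albicans biofilms · Schedule – 24 h biofilm formation, then 48 h compound exposure, 37 °C · Evaluation – percent inhibition of biofilm viability · Technique – 2-h Alamar Blue fluorescence, 535/590 nm excitation/emission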
The depositor's hits bear a star.

Compound	Calb biofilm kill
C1CCC2S[C@H]3CCCCC3NC2C1 (stereo partly drawn)	18.4
O=C1NC(=O)C(=Cc2cc(Cl)ccc2OCc2ccc(C(=O)O)cc2)C(=O)N1	14.4
CN1c2ccc([N+](=O)[O-])cc2CC2(C(=O)NC(=O)N(c3ccccc3)C2=O)C1c1ccccc1 (stereo not drawn)	15.5
O=c1c2cc(Br)ccc2[nH]c(=S)n1-c1ccccc1	11.7
CN(C)/C=C1/C(=O)NC(=O)N(CCNc2ncc(C(F)(F)F)cc2Cl)C1=O	10.7
CCN1C(=O)C(=C2C=C(C)N(Cc3ccco3)C(C)=C2)C(=O)N(CC)C1=S	6.6
O=C(Cc1ccccc1)NC(Cc1ccc(Cl)cc1)C(=O)O (stereo not drawn)	18.3
COc1ccc(-n2c(O)c(C(C)=NCCc3c[nH]c4ccccc34)c(=O)[nH]c2=O)cc1	26.5
Fc1ccc(Cn2nnnc2CN2CCC(n3nnc4cc(C(F)(F)F)ccc43)CC2)cc1	27.8
CCC(=O)O[C@@H]1[C@@H](OC(C)=O)[C@@]2(O)C(C[C@H](O)C2(C)C)[C@](C)(O)[C@H]2CC[C@@H]3[C@@H](O)[C@]12C[C@@]3(C)O (stereo partly drawn)	9.4
N#CCCn1cc(C(=O)NCc2ccccc2)c(-c2ccccc2)n1	3.3
C[N+]1(C)C2CCC1CC(OC(=O)C(CO)c1ccccc1)C2 (stereo not drawn)	14.5
CC(C)COC(=O)c1ccccc1C(=O)OCC(C)C	-2.2
CC(=O)c1cn(CCCOc2ccccc2)c2ccccc12	21.9
COc1ccc(-n2c(O)c(C=NCc3ccc4c(c3)OCO4)c(=O)[nH]c2=O)cc1	16.3
COCCCn1c(-c2ccc(OC)cc2)cc(C(=O)NC2CCCCCCC2)c1C	8.5
COc1cc(C=C2C(=O)NC(=O)NC2=O)ccc1OCc1ccc([N+](=O)[O-])cc1	20.3
COc1ccc(-c2cc(-c3ccccc3)[n+](C)c(-c3ccccc3)c2)cc1	13.7
Cc1nn(Cc2ccccc2)c(Cl)c1C(=O)NC1CCCc2ccccc21 (stereo not drawn)	6.5
COc1ccccc1N(CC(=O)NC1CCCC1)C(=O)c1cnn(C(C)C)c1	13.1
O=c1c2ccccc2nc(-c2ccco2)n1-c1ccc(Br)cc1	30.7
O=C1/C(=C/c2ccc3c(c2)OCO3)N2CCC1CC2	17.0
CCC(C)n1c(C)cc(C(N)=O)c1C (stereo not drawn)	16.1
CCc1ccc(/C=C(/C#N)C(N)=S)cc1	12.3
c1cncc(C2CCCCN2)c1 (stereo not drawn)	21.9
Cc1nn(Cc2ccccc2Cl)c(C)c1C(=O)NC1CCCc2ccccc21 (stereo not drawn)	5.6
O=Cc1cn(Cc2ccccc2F)c2ccccc12	-2.2
CCOP(=O)(OCC)C1(O)C(=O)Nc2ccccc21 (stereo not drawn)	12.4
O=CC(Br)P(=O)(N1CCOCC1)N1CCOCC1 (stereo not drawn)	17.9
CCC(=NC(C)c1ccccc1)c1c(O)[nH]c(=O)[nH]c1=O (stereo not drawn)	16.4
Cc1ccc(S(=O)(=O)N(c2cc(Cl)c(O)c(Cl)c2)P(=O)(OC(C)C)OC(C)C)cc1	5.8
COc1ccc(CN2C(=O)CC(=O)NC2=S)cc1	18.4
CCOC(=O)C1CCN(/C=C2\C(=O)NC(=S)N(CC)C2=O)CC1	10.9
CC(C)CN1CCN(Cc2c(F)cccc2Cl)CC1CCO (stereo not drawn)	-4.9
CC1C2Cn3c(nc4ccccc43)C1N(C)O2 (stereo not drawn)	-0.4
Cc1ccc(-n2c(-c3ccc([N+](=O)[O-])cc3)nc3ccccc3c2=O)cc1	19.1
CC(C)c1ccc(-n2c(O)c(C=NC(CCS(C)=O)C(=O)O)c(=O)[nH]c2=S)cc1 (stereo not drawn)	17.3
Cc1c(NP(=S)(C(C)(C)C)C(C)(C)C)c(=O)n(-c2ccccc2)n1C	2.7
CC(C)CCn1c(=O)c(C(=O)NCc2ccco2)c(O)c2ccccc21	-8.9
O=c1[nH]c(=O)n(CCC2=CCCCC2)c(O)c1/C=N/Nc1ccccc1	10.3
CNC(C(=O)c1ccccc1)C(OC)c1ccc(C)cc1 (stereo not drawn)	16.5
O=C1NC(=O)N(Cc2ccccc2)C(=O)/C1=C/c1cnc(-c2ccccc2)nc1	19.9
C1CC2NCCC3NCCC(N1)N32 (stereo not drawn)	19.4
CN1CCN(c2nc(N)c(Br)c(Cl)n2)CC1	11.9
O=C1/C(=C/c2cc3c(cc2Cl)OCO3)N2CCC1CC2	9.9
C=CCn1c(O)c(C(C)=Nc2ccc3c(c2)CCC3)c(=O)[nH]c1=O	19.0
O=C1NC(=O)N(c2ccc(F)cc2)C(=O)/C1=C/c1ccsc1	-4.2
COc1ccc(CCn2c(O)c(C=Nc3ccc(NC(C)=O)cc3)c(=O)[nH]c2=O)cc1OC	16.4
CCN1CCN(c2ccc(N)cc2)CC1	14.0
Clc1cc(Cl)cc(NC2=NCCS2)c1	0.0
COCCNC(=O)c1c(NC(=O)c2ccc(Br)o2)n(Cc2ccccc2)c2nc3ccccc3nc12	12.9
CN1CN=C(N[N+](=O)[O-])N(Cc2ccco2)C1	5.8
CCCC/C(=N/O)c1c(C)[nH]c2ccccc12	13.6
c1ccc2c(CCNC3CCCCC3)c[nH]c2c1	7.5
Cc1ccc(-n2c(O)c(/C=N/N3CCCCCC3)c(=O)[nH]c2=O)cc1C	19.9
CC(=O)c1c(C)n(Cc2ccccc2)c2ccc(O)cc12	17.7
Cc1sc(-n2c(C)cc(C=C3C(=O)NC(=O)NC3=O)c2C)c(C#N)c1C	6.7
Cc1ccc(CN(Cc2ccccc2)C(=S)NCC(=O)N2CCC3(CC2)OCCO3)o1	12.6
Cc1cccc(CN2CCN(c3ccc(Cl)cc3)CC2)c1	5.7
O=P(Nc1ccccc1)(Nc1ccccc1)Oc1ccccc1	12.1

Next section
Compound	Calb biofilm kill
[N-]=[N+]=NCc1cn2cccnc2n1	7.7
O=C1C2C3CCC(O3)C2C(=O)N1CCO (stereo not drawn)	-2.8
CCn1c(O)c(N=Nc2ccc(S(=O)(=O)N3CCOCC3)cc2)c(=O)n(CC)c1=S	14.6
CC(=O)N1CCC(N2CCCC(C(=O)c3cccc(Cl)c3)C2)CC1 (stereo not drawn)	10.6
CCn1c(O)c(/C=N/NC(=O)c2ccccc2)c(=O)[nH]c1=S	23.8
Cn1cccc1/C=C1\C(=O)NC(=O)N(CCC2=CCCCC2)C1=O	2.2
CCOC(=O)C(O)(c1ccc(N(CC)C(=O)COc2ccccc2)cc1)C(F)(F)F (stereo not drawn)	7.1
Cc1ccc(NP(=O)(c2ccccc2)c2nc3ccccc3s2)cc1 (stereo not drawn)	16.9
Cc1c(C=O)c2ccccc2n1Cc1ccc(F)cc1	18.8
CNc1cc(N2CCNCC2)ccc1[N+](=O)[O-]	12.2
O=C(O)C1C2CCC(O2)C1C(=O)Nc1ccc(Cl)cc1 (stereo not drawn)	9.3
CCN(CC)c1ccc(C=C2C(=O)N(C)C(=S)N(C)C2=O)o1	4.1
CCCCn1c(N)c(C(=O)OCCOC)c2nc3ccccc3nc21	29.5
Cc1ccc(CN2C3CCCC2CC(NC(=O)Nc2cccc(F)c2)C3)cc1 (stereo not drawn)	5.1
COC(=O)c1c(C)[nH]c(C(=O)C(C)[N+]23CCN(CC2)CC3)c1C (stereo not drawn)	16.7
O=c1[nH]c2ccccc2n1C1CCN(CCCC(c2ccc(F)cc2)c2ccc(F)cc2)CC1	12.9
COC(=O)N(C)c1ccc(C(O)(C(=O)OC)C(F)(F)F)cc1 (stereo not drawn)	15.5
O=c1[nH]c(=S)[nH]c(O)c1N=Nc1ccc2c(c1)OCCO2	5.9
CCC(C)N1C(=O)/C(=C\c2cnc(N(C)C)nc2)C(=O)NC1=S (stereo not drawn)	5.9
COc1ccccc1N1CCN(Cc2ccc(F)cc2)CC1	8.3
Cc1cccc(OP(N)(N)=O)c1C	3.5
O=C(Nc1ccccc1)c1c(O)c2c(n(Cc3ccco3)c1=O)CCCC2	31.0
N#CCC(=O)NN1Cc2ccccc2C1=N	2.8
CC1CCC[C@H](O)CCCCCc2cc(O)cc(O)c2C(=O)O1 (stereo partly drawn)	9.8
O=c1[nH]c(=S)n(C2CC2)c(O)c1C=Nc1cccc(C(F)(F)F)c1	15.6
COc1cccc(-n2c(=S)[nH]c3ccccc3c2=O)c1	-8.4
Nc1ccc2cc(Br)ccc2c1	18.7
CCC(=O)c1cn(Cc2ccccc2)c2ccccc12	26.8
CCCCn1c(=O)c(C=Nc2cccnc2Cl)c(O)n(CCCCl)c1=O	9.4
CCC(C)NC(=O)CN1C(=O)CN=C(c2ccccc2)c2ccccc21 (stereo not drawn)	-5.4
Cc1nn(Cc2ccccc2)c(C)c1C(=O)OCC(=O)Nc1cccc(S(N)(=O)=O)c1	11.5
CCCCCn1c(=O)c(C(=O)Nc2nc(CC(=O)OCC)cs2)c(O)c2ccccc21	9.7
O=C(c1ccccc1)C1NC1c1ccccc1 (stereo not drawn)	9.1
CCc1ccc(N2C(=O)NC(=O)/C(=C/c3cccn3CCOc3ccc(C)cc3)C2=O)cc1	8.6
COc1cccc(N2C(=O)NC(=O)/C(=C/c3ccc([N+](=O)[O-])s3)C2=O)c1	27.1
CN1CCN(Cc2cn3cccnc3n2)CC1	3.9
CCN(CC)c1ccc(N=Cc2c(O)n(CCc3ccc(OC)c(OC)c3)c(=O)[nH]c2=O)cc1	24.5
O=C(c1cc(C(=O)NCc2ccc(Cl)cc2)c(=O)n(Cc2ccc(Cl)cc2)c1)c1cc(F)ccc1O	21.5
CCOC(=O)/C(=N\Nc1ccccc1)N1CC1	14.3
CCOc1ccc(/C=C2/C(=O)NC(=O)N(CCc3ccc(F)cc3)C2=O)cc1	3.8
CN1CCN(c2ccc(N)cc2Cl)CC1	-1.9
COc1ccc(NC(=O)c2cc([N+](=O)[O-])ccc2N2CCNCC2)cc1	9.5
CC1(C)N=C(c2ccccc2)[C@@H]2C(c3ccc([N+](=O)[O-])cc3)N21 (stereo partly drawn)	13.0
COc1ccc(CC2(CCc3ccccn3)C(=O)NC(=O)N(c3ccccc3C)C2=O)cc1OC (stereo not drawn)	9.5
CC(C(=O)O)N(C(=O)c1ccccc1)c1ccc(F)c(Cl)c1 (stereo not drawn)	13.9
COc1cccc(-n2c(O)c(C=Nc3c(C)n(C)n(-c4ccccc4)c3=O)c(=O)[nH]c2=O)c1	16.5
CC12CN3CN(C1)CC(C)(C3)C2=NO	12.1
CC[C@@]1(O)C(=O)OCc2c1cc1n(c2=O)Cc2cc3ccccc3nc2-1	22.1
CC(=O)Cc1c[nH]c2ccccc12	22.0
O=C(NCCN1CCOCC1)c1ccc(Cl)nc1	4.8
O=c1[nH]c(=S)[nH]c(O)c1N=Nc1ccc(S(=O)(=O)N2CCc3ccccc32)cc1	5.7
COc1ccc(CN2CCN(C(=O)Cc3ccccc3)CC2)c(OC)c1	9.6
CC(=NCCc1ccccc1)c1c(O)n(C)c(=O)n(C)c1=O	28.4
CN1C(=O)C(=Cc2ccccc2OCc2ccccc2Cl)C(=O)N(C)C1=O	20.8
COc1ccc(N=Cc2c(O)n(CC3CCCO3)c(=O)[nH]c2=O)cc1 (stereo not drawn)	-0.3
CCc1ccc2c(CN3CC=C(c4ccccc4)CC3)cc(=O)oc2c1	16.5
Cc1ccsc1C(=O)C1CCCN(Cc2cccn2-c2ccccn2)C1 (stereo not drawn)	8.1
Cc1ccc(OCCSC2=NN2c2cc(C)nc(N)n2)cc1	-0.2
CN1CCN(c2nc3ccccc3o2)CC1	8.2
COC1CCCCC1NCCc1ccccc1 (stereo not drawn)	12.2

Following part
Compound	Calb biofilm kill
CC1CCCCN1Cc1cccnc1 (stereo not drawn)	21.0
Cn1cc(C(=O)NCc2ccccc2)c2ccccc21	21.9
CCCn1c(C(=O)c2ccccc2OC)nc2ccccc21	29.9
CCCCn1c(O)c(C=NCc2ccc3c(c2)OCO3)c(=O)[nH]c1=O	13.3
CC(C)CCNC(=O)CN1C(=O)CN=C(c2ccccc2)c2ccccc21	24.4
CCN(CC)CCOC(=O)C(O)(c1ccccc1)c1ccccc1	-7.5
COc1cc(CC2(CCc3ccncc3)C(=O)N(C)C(=O)N(C)C2=O)cc(OC)c1OC	20.5
O=c1[nH]c(=S)n(C2CC2)c(O)c1C=NCc1ccc(F)cc1	-0.8
CCCCCCn1c(O)c(C=NCCN2CCOCC2)c(=O)[nH]c1=O	10.2
COc1ccc(/C=C2/C(=O)NC(=O)N(c3ccccc3)C2=O)cc1CN1C(=O)c2ccccc2C1=O	10.7
COc1ccc(/C=C2/C(=O)NC(=O)N(c3ccc(C)c(C)c3)C2=O)cc1CN1C(=O)c2ccccc2C1=O	22.2
C/C(=N\N1CCCCC1c1cccnc1)c1c(O)n(C2CCCCC2)c(=S)[nH]c1=O (stereo not drawn)	9.7
CN(C)CC1CSCCC1(O)c1ccc(Cl)cc1 (stereo not drawn)	13.4
O=C1C2CCN(CC2)C12CC2c1ccc(C(F)(F)F)cc1 (stereo not drawn)	-3.0

2 successive entries out of the list so far, for reference:
Compound	Calb biofilm kill
CN1c2ccc([N+](=O)[O-])cc2CC2(C(=O)NC(=O)N(c3ccccc3)C2=O)C1c1ccccc1 (stereo not drawn)	15.5
O=c1c2cc(Br)ccc2[nH]c(=S)n1-c1ccccc1	11.7

Only part of the results is shown; the hit share may differ from the screen's.
